miR-21 reporter = qHTS Assay for Modulators of miRNAs and/orActivators of miR-21 | HeLa miR-21 FLuc reporter, luciferase, 48 h | Potency, µM (top dose mostly 38.3 µM), for the others: at the top dose reporter change, positive = more light | 340,000 tested, under 10 active; active = well fitted rising curve with a large enough effect; inconclusive = small, poorly fitted or top-dose-only effect; inactive = no such curve, though single readings can be large or run the other way;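 note: % of control where 0% means no effect; miR-21 action dims this reporter so a rising signal means less miR-21 action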
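HeLa cells endogenously expressing miR-21, stably carrying CMV-driven firefly luciferase with a downstream miR-21 binding site, 2000 cells/well. Titrations up to approximately 40 uM, 48 hours; luciferase luminescence read.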
Rango release inh = qHTS Assay for Inhibitors of RanGTP induced Rango (Ran-regulated importin-beta cargo) - Importin beta complex dissociation | Potency, µM (series often up to 46.1 µM), for inactives: at the highest dose activity change, negative = inhibition | Biochemical FRET Rango-importin beta, RanGTP-induced dissociation | Snurportin-1 (Homo sapiens) + GTP-binding nuclear protein Ran (Homo sapiens) + Importin … | AID 540253, 2011 | 340,000 tested, 0.071% active; active means falling FRET ratio curve, often poorly fitted, with flat reads before Ran was added; inconclusive means other falling curves, or compound fluorescence or quenching; inactive means flat or rising ratio curve;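 note: potency is the fitted concentration of half-maximal effect; % of control where 0% means no effect; nearly all actives have a fitted effect of over 45% in size; -100% = wells without RanGTP and RCC1; the record marks most hits as doubtful in a second field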
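Two FRET readings bracket the reaction: one 5 min after compound meets Rango–importin beta, another 45 min after RanGTP-RCC1 (0.6 uM Ran, 0.2 uM RCC1, 2 mM GTP) is added. Only the second defines inhibition.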
GLA inh pH 4.5 = qHTS Assay for Inhibitors of Human alpha-Galactosidase at pH 4.5. activity change, negative = inhibition, % at 105 µM. Alpha-galactosidase A (Homo sapiens), P06280. AID 1467, 2008. purified enzyme, 4-MU-alpha-Gal fluorescence, pH 4.5. 230,000 tested, under 10 active; inconclusive = small, poorly fitted or top-dose-only inhibition, or a rising curve; inactive = flat fitted curve, though single readings scatter; no compound was filed as active;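 note: 0% = full activity with enzyme and -100% = basal without enzyme; dose as in the result columns while the protocol names 77 µM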
Target sequence (P06280 whole entry, looked up): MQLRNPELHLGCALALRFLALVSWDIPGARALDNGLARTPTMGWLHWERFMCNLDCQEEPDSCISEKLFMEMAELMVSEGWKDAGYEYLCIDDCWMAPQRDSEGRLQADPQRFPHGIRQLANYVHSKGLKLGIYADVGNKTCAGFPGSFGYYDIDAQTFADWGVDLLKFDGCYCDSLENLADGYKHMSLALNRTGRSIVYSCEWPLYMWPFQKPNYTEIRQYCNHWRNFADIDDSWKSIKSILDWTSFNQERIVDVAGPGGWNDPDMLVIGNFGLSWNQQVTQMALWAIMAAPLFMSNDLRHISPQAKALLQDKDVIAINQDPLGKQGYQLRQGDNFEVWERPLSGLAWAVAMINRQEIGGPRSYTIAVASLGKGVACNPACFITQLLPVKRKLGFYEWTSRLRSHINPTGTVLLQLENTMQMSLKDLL
Rango complex inh = qHTS Assay for Inhibitors of Rango (Ran-regulated importin-beta cargo) - Importin beta complex formation; Importin subunit beta-1 (Homo sapiens), Q14974; Rango CFP/YFP FRET sensor + importin beta, 45 min; Potency, µM (doses to about 92.2 µM), for inactives: at the top dose inhibition of complex formation; 340,000 tested, 0.031% active; AID 540263, 2011; active = rising FRET ratio curve, often small or poorly fitted; inconclusive = mostly compound fluorescence or quenching in the first reads; inactive = flat curves in all reads;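 note: potency is the fitted concentration of half-maximal effect; 0% = DMSO wells and 100% = buffer wells lacking importin beta; nearly all actives have a fitted effect of over 15% in size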
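Inhibition scored from the CFP 486 nm/YFP 530 nm FRET ratio 45 min after adding 0.125 microM importin beta to 50 nM Rango biosensor preincubated 5 min with compound (room temperature, PBS with DTT, Tween-20, BSA). No-importin wells as positive control.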
Numbers without * were called inactive; ? = inconclusive; / = not tested or not shown; & = joins results of further samples. Not all compounds are listed (hit frequency here may not be typical).

1	COc1ccccc1N1CCN(S(=O)(=O)c2ccc(-n3cnnn3)c(C)c2)CC1
2	COc1cc(CN2CCC(Cc3ccccc3)CC2)c([N+](=O)[O-])cc1OC
3	CN(C(=O)c1ccccc1)c1ccccc1C(=O)NCCc1ccccc1
4	O=C(Cc1ccc(F)cc1)N1CCC2(CC1)NCCc1[nH]cnc12
5	Cc1ccccc1NC(=O)Cn1c(O)c(N=NC(=O)c2ccccc2O)c2ccccc21
6	O=c1c2ccccc2oc2ncccc12
Compound	1	2	3	4	5	6
miR-21 reporter	-3%	6%	0%	-2%	0%	-16%
Rango release inh	4%	-5%	-2%	3%	2%	11%
GLA inh pH 4.5	2	/	/	/	-10	0
Rango complex inh	0.5%	0.7%	-3.0%	0.7%	-0.2%	1.6%

7	O=C(COc1ccc(C(=S)N2CCOCC2)cc1)N1CCOCC1
8	CC(=O)Oc1ccc(C(=O)N2c3ccccc3NC(=O)C2C)cc1 (stereo not drawn)
9	CC(C)c1ccc(OCc2cccc(C(=O)N/N=C/c3cccnc3)c2)cc1
10	O=C(Nc1ccc(F)cc1)c1ccc2nsnc2c1
11	CCC1=C(OC(=O)N(CC)CC)N2C(=O)OC(=NCC(=O)OC)[C@]2(C)[C@H]2C1=CC[C@H]1C(=O)N(CC)C(=O)[C@H]12
12	Clc1c(CSc2nc3ccccc3o2)nc2ccccn12
Compound	7	8	9	10	11	12
miR-21 reporter	0%	0%	-23%	-29%	-2%	-38%
Rango release inh	-17%	-13%	18%	25%	-7%	?
GLA inh pH 4.5	/	/	-1	-3	-1&-1	-7
Rango complex inh	?	0.5%	-3.7%	1.8%	2.2%	3.8%

13	Cc1ccc(S(=O)(=O)/N=C(\CN2CCCCC2)N2CCOCC2)cc1
14	CCOC(=O)c1oc2cc(C)cc(O)c2c(=O)c1-c1csc(C)n1
15	O=C1C=CC(=Nc2ccc3c(c2)Cc2cc(F)ccc2-3)O1
16	CCOc1ccc2[nH]c3c(N4CCc5ccccc5C4)ncnc3c2c1
17	O=C(Nc1ccc(F)cc1F)c1cncc(Br)c1
18	Cc1ccc(-n2nnnc2SCn2nnc3ccccc3c2=O)c(C)c1
Compound	13	14	15	16	17	18
miR-21 reporter	-8%	-4%	/	?	-5%	-9%
Rango release inh	2%	-9%	2%	2%	-4%	9%
GLA inh pH 4.5	-3	1	/	-21	-6	-5
Rango complex inh	-0.9%	1.5%	1.5%	-1.5%	-2.3%	-3.3%

19	CCCn1c2ccccc2c2cnn(CC(=O)NCCCN3CCCCC3CC)c(=O)c21 (stereo not drawn)
20	O=C(CSc1nnc(NC(=O)C2CC2)s1)NCc1cccs1
21	CCN(C(=O)COC(=O)CCCOc1ccc(Cl)cc1C)c1c(N)n(Cc2ccccc2)c(=O)[nH]c1=O
22	Cc1noc(C)c1C(=O)N1CCN(c2ccccc2O)CC1
23	O=C(CN(c1ccccc1)S(=O)(=O)c1ccc(F)cc1)NC1CCS(=O)(=O)C1 (stereo not drawn)
24	CC1CCN(S(=O)(=O)c2ccc3c(c2)N(CC(=O)NCCCN2CCCCC2C)C(=O)CS3)CC1 (stereo not drawn)
Compound	19	20	21	22	23	24
miR-21 reporter	-7%&2%	0%	/	/	-2%	-5%&-4%
Rango release inh	19%	-14%	-5%	-1%	-1%	-3%
GLA inh pH 4.5	/	3	/	/	-5	/
Rango complex inh	-3.9%	-1.0%	-0.1%	-0.1%	-1.1%	-0.6%

25	CCOC(=O)C1CCN(C(=O)C2CCN(S(=O)(=O)c3cccc4nsnc34)CC2)CC1
26	O=C(O)c1cccc2c1C(=O)c1ccc(N3CCCC3)cc1S2(=O)=O
27	Cc1ccc(F)cc1NC(=O)C1CCN(c2cnccn2)CC1
28	O=C(C1CC1)N(Cc1nc2ccccc2c(=O)[nH]1)Cc1cccs1
29	CCCN1C(=O)/C(=C\C=C2/Sc3ccccc3N2CCO)SC1=S
30	Cc1nn(C)cc1CN(C)C(=O)c1cc2nc(-c3ccco3)cc(C(F)(F)F)n2n1
Compound	25	26	27	28	29	30
miR-21 reporter	1%	/	0%	1%	-1%	-29%
Rango release inh	-1%	?	2%	-6%	15%	?
GLA inh pH 4.5	/	/	1	0	-3	2
Rango complex inh	-0.3%	?	1.3%	4.5%	0.7%	?

31	Cc1cc(NC(=O)Nc2cccc(Cl)c2)n(-c2ccccn2)n1
32	COCCCNCCOc1cc(C(C)C)ccc1C
33	CC(Oc1ccc(Br)cc1Br)C(=O)Nc1cccnc1Cl (stereo not drawn)
34	O=C(NCCN1CCOCC1)c1ccc([N+](=O)[O-])cc1[N+](=O)[O-]
35	Cc1ccc(Cl)cc1N1CCN(C(=O)c2cc3c(=O)n(C)c4ccccc4c3n2C)CC1
36	COc1ccc(Cl)cc1NC(=O)C(OC)c1ccccc1 (stereo not drawn)
Compound	31	32	33	34	35	36
miR-21 reporter	17%	-13%	-17%	1%	1%	-3%
Rango release inh	-8%	9%	18%	1%	17%	0%
GLA inh pH 4.5	/	-10	/	6	-7	0
Rango complex inh	6.2%	5.2%	-1.2%	-2.1%	2.2%	-1.3%

Three entries from above, bar-delimited:
No. | canonical_smiles | miR-21 reporter | Rango release inh | GLA inh pH 4.5 | Rango complex inh
33 | CC(Oc1ccc(Br)cc1Br)C(=O)Nc1cccnc1Cl (stereo not drawn) | -17% | 18% | / | -1.2%
34 | O=C(NCCN1CCOCC1)c1ccc([N+](=O)[O-])cc1[N+](=O)[O-] | 1% | 1% | 6 | -2.1%
35 | Cc1ccc(Cl)cc1N1CCN(C(=O)c2cc3c(=O)n(C)c4ccccc4c3n2C)CC1 | 1% | 17% | -7 | 2.2%

The list goes on.
37	CC(=O)Oc1ccc(-c2ccc(C(=O)O)cc2)cc1
38	O=C(COC(=O)Cc1cccc(C(F)(F)F)c1)NC1CCS(=O)(=O)C1 (stereo not drawn)
39	CCOC(=O)c1c(CSc2ccc(CC)cc2)oc2ccc(O)c(CN(C)C)c12
40	COc1cccc(Nc2cc(C)nc3ccccc23)c1
41	CCOc1ccc(-c2cc(N3C(=O)Nc4ccccc4N3O)on2)cc1
42	CC1CCc2sc(C(=O)OCC(=O)NC(C)C)cc2C1 (stereo not drawn)
Compound	37	38	39	40	41	42
miR-21 reporter	-8%	/	?	18%	18%	0%
Rango release inh	1%	-3%	0%	15%	-11%	5%
GLA inh pH 4.5	6	/	/	-9	2	4
Rango complex inh	-2.7%	-0.6%	6.6%	-2.8%	0.3%	-0.5%

An excerpt from above, reduced to Rango release inh.
item	mol	Rango release inh
39	CCOC(=O)c1c(CSc2ccc(CC)cc2)oc2ccc(O)c(CN(C)C)c12	0%
40	COc1cccc(Nc2cc(C)nc3ccccc23)c1	15%
41	CCOc1ccc(-c2cc(N3C(=O)Nc4ccccc4N3O)on2)cc1	-11%
42	CC1CCc2sc(C(=O)OCC(=O)NC(C)C)cc2C1 (stereo not drawn)	5%

An excerpt of these results, with each value named.
39) CCOC(=O)c1c(CSc2ccc(CC)cc2)oc2ccc(O)c(CN(C)C)c12
- miR-21 reporter: ?
- Rango release inh: 0%
- GLA inh pH 4.5: /
- Rango complex inh: 6.6%

40) COc1cccc(Nc2cc(C)nc3ccccc23)c1
- miR-21 reporter: 18%
- Rango release inh: 15%
- GLA inh pH 4.5: -9
- Rango complex inh: -2.8%

41) CCOc1ccc(-c2cc(N3C(=O)Nc4ccccc4N3O)on2)cc1
- miR-21 reporter: 18%
- Rango release inh: -11%
- GLA inh pH 4.5: 2
- Rango complex inh: 0.3%

42) CC1CCc2sc(C(=O)OCC(=O)NC(C)C)cc2C1 (stereo not drawn)
- miR-21 reporter: 0%
- Rango release inh: 5%
- GLA inh pH 4.5: 4
- Rango complex inh: -0.5%

Next results.
43	COc1cc(-c2cc(C(=O)Nc3ccc(C)c(S(=O)(=O)N4CCOCC4)c3)c3ccccc3n2)cc(OC)c1OC
44	O=C(Oc1ccc(N(C(=O)c2ccncc2)S(=O)(=O)c2cccs2)cc1)c1ccncc1
45	COC(=O)CCCCCNc1ccc(C(=O)OC)cc1N
46	COc1ccc(/C=N/Nc2nc(NCc3ccco3)nc(Nc3ccc(OC)cc3)n2)cc1
47	N=NC(=O)c1ccccc1Nc1c(O)[nH]c2ccccc12
48	O=C(O)CCC(=O)Nc1sc2c(c1C(=O)NC1CCCC1)CCCC2
Compound	43	44	45	46	47	48
miR-21 reporter	/	-2%	3%	0%	/	-10%
Rango release inh	-1%	6%	-21%	33%	1%	-10%
GLA inh pH 4.5	/	-10	-6	-11	/	/
Rango complex inh	?	-2.5%	-3.7%	-5.9%	-0.9%	-1.5%

49	CC(C)(C)NC(=O)c1ccc2c(c1)C(=O)N(Cc1ccco1)C2=O
50	COc1ccc(NC(=O)c2ccccc2NC(=O)C2CCCCC2C(=O)O)cc1 (stereo not drawn)
51	O=C(C1CCN(Cc2ccc(Cl)cc2)CC1)N1CCN(Cc2ccc3c(c2)OCO3)CC1
52	O=C(/C=C/c1cccc([N+](=O)[O-])c1)n1cnc2ccccc21
Compound	49	50	51	52
miR-21 reporter	-3%	/	15%	0%
Rango release inh	18%	2%	-5%	-2%
GLA inh pH 4.5	/	/	/	-2
Rango complex inh	0.1%	1.1%	4.3%	1.2%

From PubChem BioAssay
